FGF22 binding – shifts melting point of recombinant human FGF22; hit rate 1.5% among 340,000; calls only at 9.99 µM; recombinant FGF22 thermal shift, SYPRO orange fluorescence; percent of sucrose octasulfate shift, DMSO zero; Q9HCT0;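 active = melting point raised past a set limit in the mean and every replicate; inconclusive = no clear call; three in four hits are not shown here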
Vif A3G – HIV-1 Vif–A3G interaction blockers – biochemical, TR-FRET, GST-Vif 1-94, biotin-A3G peptide, dose response retest, primary screen (AID 1117319); one-dose inhibition, %; IC50 in µM for titrated hits; TR-FRET GST-Vif / biotin-A3G peptide binding; higher % means a stronger effect; test concentration not given here; strong numbers were not always called active; hit rate 0.57% among 260,000;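 active = above the screen mean plus three standard deviations and confirmed in dose response; inconclusive = results disagree or hit not tested in dose response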;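 also: Vif residues 1-94 fused to GST binding biotinylated APOBEC3G peptide 110-148; 0% = full assay without inhibitor and 100% = GST in place of GST-Vif; retest series ran down from 100 µM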
E coli growth – blocks Escherichia coli growth | OD600 absorbance (test concentration not listed) | OD600, 23 h; hits give low values | hit rate 0.21% among 330,000;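 active = OD600 absorbance below the run mean of sample wells minus 3.6 SD, in any replicate, cut at about 0.56 in these data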;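 also: stock transfer was 300 nL into about 60 µL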
HNF4A DNA FP – change in binding of human HNF4 alpha to DNA; P41235; hit rate 0.3% among 360,000; activity change, % at 10 µM; HNF4a-FITC DNA binding, fluorescence polarization, 1 h; in the data active = activity change above about 30%, passing the limit was not always enough;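 also: controls were the assay level and a saturating level of protein; the project sought stronger binding though the title names inhibitors; some compounds called inactive have numbers as strong as hits; positive values seem to mean higher polarization but the record does not say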
Target sequence (P41235 whole entry, looked up): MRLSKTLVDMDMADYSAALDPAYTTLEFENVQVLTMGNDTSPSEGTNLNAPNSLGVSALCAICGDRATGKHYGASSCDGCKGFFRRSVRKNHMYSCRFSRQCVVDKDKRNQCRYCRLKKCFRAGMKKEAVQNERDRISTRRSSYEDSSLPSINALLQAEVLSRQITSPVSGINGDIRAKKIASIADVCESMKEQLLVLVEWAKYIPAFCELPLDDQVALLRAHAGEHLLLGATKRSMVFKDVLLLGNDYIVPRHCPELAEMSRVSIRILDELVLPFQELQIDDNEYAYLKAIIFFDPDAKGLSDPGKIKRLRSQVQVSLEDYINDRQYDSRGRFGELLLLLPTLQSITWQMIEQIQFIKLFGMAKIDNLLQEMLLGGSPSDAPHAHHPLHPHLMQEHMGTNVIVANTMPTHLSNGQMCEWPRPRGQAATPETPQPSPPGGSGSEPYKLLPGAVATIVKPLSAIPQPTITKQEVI
UCH37 DUB inh – blocks the human deubiquitinase UCH37; Q9Y5K5; purified proteasome/UCH37, Ub-AMC cleavage fluorescence; inhibition, % (concentration not given with the values); hit rate 0.33% among 330,000;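 active = mean of two replicates above 20%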;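 also: 0% = compound-free wells with enzyme and 100% = wells lacking proteasome; stock transfer was 100 nL into about 20 µL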
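Test system – human UCH37 enzyme supplied as purified proteasome complex · Incubation – 30 min preincubation with enzyme, 25 min cleavage at room temperature · Detection – AMC fluorescence from Ub-AMC cleavage, excitation 355 nm, emission 460 nm · Benchmarks – no-proteasome wells (full inhibition) and compound-free wells (no inhibition)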
AF4-AF9 inh – inhibitors of human MLL-AF4/AF9 interaction; hit rate 0.47% among 350,000; AlphaScreen, biotin-AF4 peptide binding to FLAG-AF9; inhibition, % at 10 µM; AID 651704;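 active = every replicate reaching a set inhibition limit, whatever the replicate mean, cut at about 25% in these data; inconclusive = mean inhibition reaches that limit but some replicates miss it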;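 also: 0% = plate neutral control median and 100% = total signal loss; the record names both 10 and 1 µM as test concentration; the first replicate is given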
Target sequence (P42568 whole entry, looked up): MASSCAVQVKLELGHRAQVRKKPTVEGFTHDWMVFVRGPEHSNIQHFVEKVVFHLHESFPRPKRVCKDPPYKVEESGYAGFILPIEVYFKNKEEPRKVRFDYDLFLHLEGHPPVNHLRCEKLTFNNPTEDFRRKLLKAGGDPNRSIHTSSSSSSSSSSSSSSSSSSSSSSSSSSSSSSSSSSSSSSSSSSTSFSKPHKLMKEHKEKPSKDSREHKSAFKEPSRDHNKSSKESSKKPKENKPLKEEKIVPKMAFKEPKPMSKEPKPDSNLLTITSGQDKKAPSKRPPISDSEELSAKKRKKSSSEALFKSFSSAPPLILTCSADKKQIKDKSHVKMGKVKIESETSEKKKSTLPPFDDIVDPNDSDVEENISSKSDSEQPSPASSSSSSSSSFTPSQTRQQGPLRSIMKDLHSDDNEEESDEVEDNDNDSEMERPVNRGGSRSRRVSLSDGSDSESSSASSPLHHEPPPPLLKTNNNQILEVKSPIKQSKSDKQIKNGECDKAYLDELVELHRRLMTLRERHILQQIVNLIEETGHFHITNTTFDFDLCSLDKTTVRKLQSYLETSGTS
RanGTP-Impb inh – inhibitors of RanGTP-importin-beta interaction, primary screen, biochemical, FRET, CFP-Ran, YFP-importin-beta, homogeneous | hit rate 1.1% among 300,000 | inhibition, % (concentration not given with the values) | cell-free CFP-Ran/YFP-importin-beta FRET ratio;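 active = most replicates above 15%; inconclusive = exactly half above 15%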;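 also: 0% = DMSO wells and 100% = Ran loaded with GDP instead of GTP; wells of about 40 µL received 100 nL stock; the first replicate is given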
* = called active by the depositor; i = inactive; u = inconclusive; x = not tested or not shown; & = joins results of further samples.

Below each SMILES – Vif A3G	E coli growth	HNF4A DNA FP	UCH37 DUB inh	FGF22 binding	RanGTP-Impb inh	AF4-AF9 inh
(1) CCOC(=O)C1=C(Nc2ccc(OC)cc2)OCC1=O
  13.6%	0.677	0.6	2.1	i	2.6	-7.2
(2) Cc1ccc(NC(=O)CSc2ccc(S(=O)(=O)N3CCCC3)cn2)cc1F
  -5.9%	0.65	4.2	1.6	i	x	-1.0
(3) CC(C)(C)c1ccc(NC(=O)CSc2nnc(-c3n[nH]c4ccccc34)o2)cc1
  x	0.716	-2.8	4.2	i	0.0	-4.7
(4) CCOc1ccc(NC(=O)C(CC)n2nc(C)c3c(C)n(-c4ccccc4)nc3c2=O)cc1 (stereo not drawn)
  x	0.671	-0.6	0.3	i	0.6	-13.0
(5) CC(C)(C)OC(=O)N1O[C@H]2CC1[C@@H]1[C@@H]2N=NN1CCc1ccncc1
  -3.1%	0.723	2.1	2.2	i	x	-0.3
(6) COc1ccc(S(=O)(=O)N2CCOCC2)cc1Cl
  14.2%	0.663	-1.1	0.0	x	-4.3	x
(7) CCCc1cc(C(=O)N2CCN(C(c3ccccc3)c3ccccc3)CC2)no1
  -2.2%	0.774	9.8	5.1	i	-2.1	49.6*
(8) Cc1cccc(C)c1OC(=O)CN(c1ccc(Cl)cc1)S(C)(=O)=O
  -4.0%	0.722	-2.1	2.4	x	4.1	x
(9) Cc1ccc(CN2CC(C(=O)Nc3nnc(SCc4c(Cl)cccc4Cl)s3)CC2=O)cc1 (stereo not drawn)
  x	0.722	1.7	2.9	i	-1.2	-10.2
(10) Cc1csc(NC(=O)Nc2cccc(Cl)c2)n1
  -2.3%	0.582	0.3	2.7	x	0.4	x
(11) CCOC(=O)N1CCN(C(=O)Nc2ccc(NC(=O)N3CCN(C(=O)OCC)CC3)cc2)CC1
  7.0%	0.672	4.2	1.9	i	-2.2	u
(12) CCCCOc1ccccc1NC(=O)c1scc2c1OCCO2
  14.8%	0.745	-1.1	-1.2	i	0.1	-1.9
(13) CC(=O)N1CCN(c2ccc(NC(=O)c3cccc(Cl)c3)cc2)CC1
  10.2%	x	-4.5	x	i	-2.3	0.7
(14) O=C(OCCOc1ccc(Br)cc1)c1ccc(Cl)c(S(=O)(=O)N2CCOCC2)c1
  0.7%	0.743	-1.5	0.2	x	1.9	-0.2
(15) O=C(CCc1ccc(S(=O)(=O)N2CCOCC2)cc1)Nc1ccc(N2CCOCC2)cc1
  27.1%	0.728	-0.1	3.8	x	-3.0	x
(16) CCCNC(=O)C1(C)CCN(C(=O)c2ccc(OC)cc2OC)C1 (stereo not drawn)
  x	x	-0.8	x	i	x	-1.4
(17) COc1ccc(-c2cc(=O)c3ccc(O)cc3o2)cc1
  x	x	-8.6	x	i	x	-11.9
(18) Cc1cc(OCC(=O)OCC(=O)NCC2CCCO2)ccc1Cl (stereo not drawn)
  8.0%	0.649	-0.3	5.7	i	x	1.3
(19) O=C1NC(=O)c2cc([N+](=O)[O-])cc3cccc1c23
  x	0.588	1.4	4.0	i	2.0	-0.6
(20) COc1cc2c(=O)[nH]c3cc([N+](=O)[O-])ccc3c2cc1[N+](=O)[O-]
  4.3%	x	0.9	x	i	x	12.9
(21) O=C(NCCOc1ccccc1)C1CCC(=O)N(CCCN2CCOCC2)C1 (stereo not drawn)
  0.3%	0.683	0.0	-1.6	i	-4.3	-0.4
(22) Cc1cccc(N2CC(O)(c3cccs3)[N+]3=C2CCCC3)c1 (stereo not drawn)
  -9.4%	0.692	4.2	4.1	i	-1.9	3.3
(23) CCOc1ccc2nc(N/C(N)=N/S(C)(=O)=O)nc(C)c2c1
  6.3%	0.718	3.8	-189.6	i	2.1	-6.1
(24) CCCCCN(C(=O)CCC(=O)OCC(=O)N1CCCCC1)c1c(N)n(CCCC)c(=O)[nH]c1=O
  x	0.679	4.0	3.3	i	2.9	-0.6
(25) COc1ccccc1NC(=O)CSC1=NC(=O)C(Cc2ccccc2)C(=O)N1 (stereo not drawn)
  x	0.642	0.3	8.3	i	-0.4	-1.9
(26) COc1cccc(CNC(=O)CN(c2cc(C)cc(C)c2)S(=O)(=O)c2c(C)noc2C)c1
  u	0.746	5.7	4.3	i	-3.0	3.4
(27) C/C=C1\COC(C(=O)NCc2ccccc2)(C(F)(F)F)C=C1C=C1CCCCC1 (stereo not drawn)
  x	x	1.2	1.1	i	-3.4	3.2
(28) O[C@@H](c1cc(C(F)(F)F)nc2c(C(F)(F)F)cccc12)[C@H]1CCCCN1
  x	x	-3.2	4.5	i	5.4	5.2
(29) Cc1ccc(SCc2c(C(=O)N/N=C/c3cccnc3)nnn2-c2nonc2N)cc1
  -0.9%	x	-0.8	x	i	1.1	1.5
(30) O=C(Nc1ccccn1)c1cccc(S(=O)(=O)N2CCOCC2)c1
  2.8%	0.75	1.0	3.6	x	-8.0	x
(31) O=C(c1ccc(OC2CCN(CCc3ccccc3)CC2)cc1)N1CCCC1
  x	0.699	-2.8	6.2	i	2.1	1.0
(32) Cc1ccc(-n2ncc(-c3n[nH]c(=S)o3)c2N)cc1C
  -7.9%	x	-0.1	x	i	x	-3.3
(33) N#Cc1ccccc1OCC(=O)N(C1CCCCC1)C1CCS(=O)(=O)C1 (stereo not drawn)
  4.9%	0.695	-2.2	-0.2	i	1.0	-13.3
(34) COc1cc([N+](=O)[O-])ccc1NC(=O)CSc1nccn1C
  9.7%	0.683	2.8	-0.2	i	-1.9	2.5
(35) CCOC(=O)C1=C(C)c2ccccc2OC1C(=O)OCC (stereo not drawn)
  -1.5%	0.7	-0.2	0.7	i	x	-30.8
(36) COC(=O)Cn1cc(C(=O)c2cccs2)c2ccccc21
  0.0%	0.699	2.9	7.5	x	1.6	x
(37) Cc1nn(-c2ccccc2)c(C)c1/C=N/NC(=O)c1cc(C23CC4CC(CC(C4)C2)C3)[nH]n1
  3.5%&23.4%	x	0.2	x	x	2.0	x
(38) CC(C)(C)C1CCC(=O)N(CCC#N)CC1 (stereo not drawn)
  x	0.713	0.1	-2.0	i	6.5	0.4
(39) O=C(NCCc1ccc(Cl)cc1)C1CCN(S(=O)(=O)c2ccc(Br)s2)CC1
  -7.5%	0.704	-0.4	0.5	i	-1.1	-1.0
(40) Cc1csc(N(C(=O)CCNC(=O)c2ccc([N+](=O)[O-])cc2)c2ccccc2)n1
  -4.9%	0.692	-2.3	4.1	i	-2.1	2.6
(41) CCOC(=O)NC(Nc1ccc(S(N)(=O)=O)cc1)(C(=O)OCC)C(F)(F)F (stereo not drawn)
  1.8%	0.76	-2.1	3.8	x	-1.1	x
(42) COc1ccccc1CC(=O)N(Cc1ccccc1)c1ccc(C)cc1
  2.7%	0.707	0.4	-2.6	i	2.7	-0.2
(43) O=C(NCc1ccccc1)C(=O)NCC1OCCN1C(=O)c1cccs1 (stereo not drawn)
  x	0.676	-4.9	0.3	i	1.7	2.4
(44) COc1cc(/C=C/c2nc3ccc([N+](=O)[O-])cc3s2)ccc1OCC(=O)O
  -2.4%	0.676	x	9.6	x	-1.8	x
(45) CCOc1ccc2nc(SCC(=O)N3CCCc4ccccc43)sc2c1
  -2.6%	0.698	3.2	3.3	x	-1.9	x
(46) Cc1c(CCC(=O)NCCCCCC(=O)O)c(=O)oc2cc3occ(-c4ccccc4)c3cc12
  23.6%	0.671	-3.4	-20.6	i	5.0	0.0
(47) CCN1C(=O)N(C(C)=O)C2C1N(C(C)=O)C(=O)N2C(C)=O (stereo not drawn)
  2.6%	0.677	-1.7	-1.6	x	-2.2	-1.3
(48) CCC1CN(C(=O)N2CCC(C(=O)Nc3ccccc3F)CC2)c2ccccc2O1 (stereo not drawn)
  -3.1%	0.684	3.8	0.8	i	-1.5	-1.7
(49) CCOC(=O)CCSc1nc(N2CCOCC2)c2c(c1C#N)CC(C)(C)OC2
  x	0.712	1.3	5.2	i	-0.3	-5.9
(50) Cc1ccc(S(=O)(=O)N2CCCCC2)cc1NC(=O)COC(=O)C1(C)CC1(Cl)Cl (stereo not drawn)
  x	0.673	1.5	1.8	i	x	-2.0

Further results.
Below each SMILES – Vif A3G	E coli growth	HNF4A DNA FP	UCH37 DUB inh	FGF22 binding	RanGTP-Impb inh	AF4-AF9 inh
(51) Cc1c(NC(=O)c2ccc(S(=O)(=O)N(C)C)cc2)cccc1-n1cnnn1
  6.2%	0.676	3.5	2.1	i	x	2.5
(52) COc1ccc(S(N)(=O)=O)cc1C(=O)NC1CCCc2ccccc21 (stereo not drawn)
  x	0.66	1.5	0.9	i	1.4	1.3
(53) Cc1nc(N)sc1-c1csc(Nc2cccc(C(=O)O)c2)n1
  16.9%	0.656	-4.1	4.9	i	-2.2	6.1
(54) O=C(CN1CCCCCC1)Nc1ccc(F)c(F)c1
  -0.7%	0.736	-2.3	0.2	x	-2.8	x
(55) C=CCNC(=O)c1onc(CSc2ccccc2)c1C(=O)NCC=C
  x	0.712	6.2	-1.3	x	5.3	x
(56) COc1ccc(/C=N/n2cnc3c([nH]c4ccc(C)cc43)c2=O)cc1CN1CCCC1
  2.0%	x	6.7	x	i	1.2	2.6
(57) CCCCn1c(=N)n(CC(=O)c2ccc(Br)s2)c2ccccc21
  x	0.641	1.7	4.8	i	-1.9	2.8
(58) CC(C)C(C)(C#N)NC(=O)CSc1nnc(-c2ccncc2)n1Cc1ccccc1 (stereo not drawn)
  u	0.74	-3.1	0.9	x	1.3	x
(59) Cc1[nH]c2ccccc2c1C(=O)C(C)OC(=O)c1ccccc1NCCO (stereo not drawn)
  x	x	-2.6	x	i	-3.2	-4.5
(60) COc1ccc(N2C(=O)CC(Sc3ncn[nH]3)C2=O)c(OC)c1 (stereo not drawn)
  0.4%	0.707	-2.2	0.1	x	0.3	x
(61) O=C(Cc1ccccc1[N+](=O)[O-])NCCCN1CCOCC1
  1.3%	0.69	-0.8	1.4	i	4.6	-2.7
(62) CSc1ccc(C#N)cc1NC(=O)c1ccc(Cl)cc1
  -14.6%	0.818	2.0	-0.6	x	1.9	x
(63) Cn1nnnc1Sc1ncnc2scc(-c3ccc(-c4ccccc4)cc3)c12
  x	0.723	-2.8	1.3	i	x	-3.1
(64) COc1ccccc1/C=C(/C(=O)OCC(=O)NCc1ccccc1)c1ccccc1
  -9.3%	0.707	3.4	5.5	x	-5.9	x
(65) Nc1cc(=O)[nH]c(=O)n1-c1ccc(Cl)cc1
  8.6%	0.672	1.5	3.8	i	8.6	-1.6
(66) C[N+]1(CC(=O)OC2CCCCCCCCCCC2)CCCC1
  4.4%	0.68	7.5	1.9	i	-1.7	1.1
(67) Nc1ccn([C@@H]2O[C@H](C(=O)N(CCC3=CCCCC3)CC3CC3)[C@@H](O)[C@H]2O)c(=O)n1
  x	x	4.2	x	i	x	-1.6
(68) COc1ccc(-c2noc(CN(C)S(=O)(=O)c3ccccc3)n2)cc1OC
  x	0.751	3.7	-0.1	x	5.0	x
(69) COc1ccc(CCNC(=O)CSCC(=O)Nc2ccccc2)cc1OC
  -1.5%	0.698	-1.2	1.8	i	0.4	-3.6

An excerpt; rates above refer to the full screens.
